Assay outcomes: PubChem, several laboratories
MT1-MMP act inh: MT1-MMP (human) activation inhibition; AID 651647; P50281; hit rate 0.061% among 360,000; GFP/RFP ratio change, % at 20 µM; HT1080 RFP-PRO-GFP cells, GFP/RFP ratio fluorescence, overnight; percent of plate control window, DMSO zero;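 active = GFP/RFP ratio change of at least 30% with cell ATP level not reduced by more than half and red fluorescence within 50% of control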; note: strong numbers were not always called active
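Material: RFP-PRO-GFP reporter HT1080 cells. Dosing: single-point 20 µM compound, 1% DMSO. Controls: DMSO and RFP-L50D-GFP cell wells. Timing: cells overnight before dosing, compound overnight, 37 °C, 5% CO2. Measure: GFP/RFP fluorescence ratio.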
eIF4H inh: inhibitors of RNA binding by human eIF4H; eIF4H fluorescence polarization binding assay; inhibition, % at 35 µM; hit rate 0.94% among 290,000;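 active = 50% or more with normal probe brightness, or confirmed in later tests; inconclusive = above 50% with abnormal brightness, or retests that disagree; inactive = below 50% or failed in later tests; about a fifth of its hits are not listed in these tables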;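 note: calls also rest on retests at 20 µM and on dose response follow-up; 0% = protein and probe with vehicle and 100% = probe without protein; strong numbers were not always called active; many hits fall short of the cut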
Rce1 inh: inhibitors of yeast Ras-converting enzyme; hit rate 0.27% among 290,000; yeast membranes, quenched prenylated peptide cleavage fluorescence; calls only; AID 2563;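 active = fall in fluorescence gain of 50% or more versus controls, with final raw signal at or below 3038400; inconclusive = same 50% fall but final raw signal above 3038400; inactive = fall in fluorescence gain under 50%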;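 note: plate controls were neutral control wells for no effect and wells lacking membranes for full effect; tested at 10 µM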
UUG fidelity: yeast start codon fidelity modulation; S. cerevisiae UUG-firefly luciferase reporter, luminescence/redox ratio; activity score, % at 18.7 µM; hit rate 0.13% among 350,000; AID 602363;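 active = replicate mean at a twofold rise or more, about +100% in these data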;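 note: firefly luciferase made from a UUG start codon reports start codon fidelity; reporter light over untreated wells divided by growth signal over untreated wells; some hits fall short of that in this replicate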
PABP polyA inh: PABP-poly(A) binding inhibition; inhibition, % at 35 µM; P11940; hit rate 1% among 290,000; PABP-poly(A) RNA binding, fluorescence polarization;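 active = 50% or more with normal probe brightness, or confirmed in later tests; inconclusive = above 50% with abnormal brightness, or retests that disagree; inactive = below 50% or failed in later tests; about a fifth of its hits are not listed in these tables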;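 note: calls also rest on retests at 20 µM and on dose response follow-up; controls were probe without protein and protein plus probe with vehicle; some compounds called inactive have numbers as strong as hits; many hits fall short of the cut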
Target sequence (P11940 whole entry, looked up): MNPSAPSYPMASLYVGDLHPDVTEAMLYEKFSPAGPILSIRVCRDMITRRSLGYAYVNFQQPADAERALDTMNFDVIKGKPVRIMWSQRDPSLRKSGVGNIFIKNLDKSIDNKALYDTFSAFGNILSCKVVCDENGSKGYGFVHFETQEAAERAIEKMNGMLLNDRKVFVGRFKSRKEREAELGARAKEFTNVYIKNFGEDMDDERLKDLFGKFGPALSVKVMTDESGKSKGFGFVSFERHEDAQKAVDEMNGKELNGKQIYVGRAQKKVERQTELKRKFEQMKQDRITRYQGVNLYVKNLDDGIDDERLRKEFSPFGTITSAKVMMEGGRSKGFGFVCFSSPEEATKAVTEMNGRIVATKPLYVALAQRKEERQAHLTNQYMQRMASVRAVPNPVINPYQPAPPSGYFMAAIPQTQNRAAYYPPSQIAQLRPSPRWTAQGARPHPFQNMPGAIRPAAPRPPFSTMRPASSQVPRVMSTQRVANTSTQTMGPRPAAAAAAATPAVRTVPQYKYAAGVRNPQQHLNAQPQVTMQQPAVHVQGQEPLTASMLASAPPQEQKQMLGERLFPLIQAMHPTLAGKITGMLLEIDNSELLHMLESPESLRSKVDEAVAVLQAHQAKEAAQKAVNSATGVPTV
CSC inhib: blocks cancer stem cells | hit rate 1.1% among 300,000 | inhibition, % at 7.5 µM | cancer stem cell-like cells viability, luminescence | AID 2717;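 active = mean at 75% or more and at least half the replicates too; inconclusive = mean and replicates disagree; tested in HMLE shEcad cells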;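 note: 0% = median of negative and 100% = median of positive control wells; the first replicate is given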
Env fusion inh: HIV envelope-mediated fusion inhibition. hit rate 1.1% among 360,000. inhibition, % at 12.3 µM. HeLa-JRFL Env/CEM21 cell fusion, luciferase;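 active = mean replicate inhibition score of at least 50 and every replicate individually at or above 50; inconclusive = only one of the two criteria met; inactive = mean below 50 and not all replicates reaching 50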;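 note: 0% = plate neutral controls and 100% = maraviroc near 300 nM; one replicate is shown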
MT1-MMP act inh RFP: recorded beside MT1-MMP act inh, whose call it bears; RFP signal change, %; measured here: RFP expression control read;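 0 = vehicle wells; hits needed this value within 50% of zero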
* = called active by the depositor; i = inactive; ? = inconclusive; . = no result given; & = joins results of further samples.

nr | compound | MT1-MMP act inh RFP | UUG fidelity | CSC inhib | Env fusion inh
1 | O=[N+]([O-])c1ccc(O)c(-c2nc(-c3ccccc3)c(-c3cccs3)[nH]2)c1 | -29 | -8 | 100* | 6
2 | CSCC[C@H](NC(=O)COc1ccc(Cl)cc1)C(=O)N1CCC2(CC1)NCCc1[nH]cnc12 | 7 | -16 | -6 | 8
3 | CCC(=O)Nc1cc(OC)c(NC(=O)c2ccccc2)cc1OC | 12 | -47 | 1 | -15
4 | CN(C(=O)CSc1nnc(C(F)(F)F)n1C)c1c(N)n(Cc2ccccc2)c(=O)[nH]c1=O | 7 | -11 | . | 17
5 | COC(=O)c1ccc(CSc2nc3sc(C)c(C)c3c(=O)[nH]2)cc1 | -15 | -13 | 2 | 5
6 | COc1ccc(N2Cc3ccccc3C2)cc1Cl | 3 | -15 | 10 | -52
7 | CCCN1Cc2cccc(C(=O)NCCc3ccccc3)c2C1=O | 10 | . | -5 | 10
8 | CCCOc1ccc(/C=c2\sc3ncnn3c2=O)cc1 | 3 | . | -9 | -1
9 | CC(C)CC[n+]1ccn(-c2nc3ccccc3nc2[N-]S(=O)(=O)c2ccc(Cl)cc2)c1 | 6 | -14 | -6 | -55
10 | COc1ccccc1CNC(=O)CN1c2cccc3cccc(c23)S1(=O)=O | 0 | 21 | . | 11
11 | CN1CCN(c2ccc(NC(=O)c3ccc([N+](=O)[O-])o3)cc2Cl)CC1 | -14 | -13 | -8 | i
12 | CCC1CCCCN1c1nc2c(C=O)c(C)nn2c2ccccc12 (stereo unspecified) | -1 | 38 | 7 | 3
13 | O=C(Nc1sc2c(c1-c1nc3ccccc3[nH]1)CCCC2)C1CCCC1 | -4 | -7 | 22 | -10
14 | Nc1[nH]n(-c2ccccc2)c(=O)c1N=Nc1ccc2ncsc2c1 | -5 | -2 | 37 | -3
15 | CCOC(=O)COC(=O)c1ccc(Oc2cc(C)nc(SC)n2)cc1 | 3 | -1 | . | 1

nr | eIF4H inh | Rce1 inh | MT1-MMP act inh | PABP polyA inh
1 | 7 | i | 4 | 0
2 | 0 | i | 2 | 1
3 | 3 | i | 8 | -2
4 | . | . | 2 | .
5 | -7 | i | -4 | -12
6 | 2 | i | -3 | -14
7 | -3 | i | 5 | 8
8 | -12 | i | 1 | -6
9 | 34 | i | 1 | 12
10 | . | . | 4 | .
11 | 1 | i | -9 | 11
12 | 4 | i | 4 | 1
13 | 5 | i | -7 | 7
14 | 2 | i | 10 | 9
15 | -1 | i | -4 | 3

Next section:
nr | compound | MT1-MMP act inh RFP | UUG fidelity | CSC inhib | Env fusion inh
16 | COc1ccc(N(C=O)C(=S)SC)cc1 | 2 | . | 2 | 15
17 | OC1(c2ccc(Cl)cc2)CCN(Cc2cn[nH]c2-c2ccc(F)cc2)CC1 | 3 | -17 | 13 | 26
18 | O=c1[nH]c2cc3c(cc2cc1CN(CCc1ccccc1)C(=S)NCCCN1CCOCC1)OCCO3 | 1 | -19 | . | -4
19 | C[C@@H]1CN([C@@H](C)CO)S(=O)(=O)c2ccc(Br)cc2O[C@H]1CN(C)C(=O)c1ccc2c(c1)OCO2 | -2 | 6&7 | . | -5
20 | O=C(COC(=O)c1ccncc1)NC(=O)C1CCCCC1 | 1 | 4 | . | -5
21 | COCCNc1nc(-c2ccccc2F)c2sc(-c3ccccc3)cc2n1 | -10 | -23 | . | -11
22 | O=C(NO)c1ccc(C(=O)N(C2CCCCC2)C2CCCCC2)cc1 | -8 | . | -2 | -12
23 | Cc1onc(-c2c(Cl)cccc2Cl)c1NC(=O)N(C)N | -1 | -14 | -8 | -5
24 | Cc1ccc(NC(=O)n2ncc3c(C)cccc32)c(C)c1 | 3 | -20 | 15 | -17
25 | CCOc1ccc(-n2c(=S)sc3c(=O)n(-c4ccccc4)c(SC)nc32)cc1 | -2 | 2 | 22 | -52
26 | Cc1cc(C)n2ncc(C(=O)Nc3ccc(Cl)c(Cl)c3)c2n1 | 0 | . | 12 | -12
27 | CCN(C(=O)CSc1nc(C)cc(=O)[nH]1)C1CCCCC1 | 1 | -12 | -26 | .
28 | Cc1ccc(S(=O)(=O)NCc2cn3c(C)csc3n2)cc1 | 2 | . | -1 | .
29 | COc1ccc(OC)c(/C=N/NC(=O)CC(=O)NCc2ccccc2)c1 | 2 | . | 9 | -3
30 | COc1cccc(-c2cc(N)nn2C(=O)Nc2ccc(Cl)cc2)c1 | 2 | -5 | 65 | 28

nr | eIF4H inh | Rce1 inh | MT1-MMP act inh | PABP polyA inh
16 | 9 | i | 4 | 3
17 | 0 | i | -5 | -9
18 | . | . | -2 | .
19 | . | . | -2 | .
20 | -4 | i | -5 | 6
21 | . | . | -7 | .
22 | 3 | i | -1 | -5
23 | -5 | i | -2 | -3
24 | -7 | i | -8 | 1
25 | -1 | i | 3 | -2
26 | -1 | i | -5 | 1
27 | . | . | 1 | .
28 | -1 | i | 0 | -9
29 | 7 | i | -1 | -1
30 | -6 | i | 3 | -1

(list continues)
nr | compound | MT1-MMP act inh RFP | UUG fidelity | CSC inhib | Env fusion inh
31 | CCOC(=O)C1(CC2CCCCO2)CCN(Cc2cc(F)ccc2-n2cccn2)CC1 (stereo unspecified) | -3 | -9 | -12 | 9
32 | O=c1oc2ccc3ccccc3c2c2c1SC(C(F)(F)F)C2 (stereo unspecified) | -5 | -19 | -15 | .
33 | CCCn1c(SCC(=O)N2CCN(C(C)=O)CC2)nc2sc3c(c2c1=O)CCC3 | -1 | 5 | 4 | -25
34 | Cc1ccccc1NC(=O)CSc1nc2scc(C)c2c(=O)[nH]1 | 2 | -17 | 15 | 1
35 | CN(C(=O)C1CCC(=O)N(C2CC2)C1)C1CCCCC1 (stereo unspecified) | 4 | -13 | 6 | 2
36 | CCOc1ccc(OCc2ccc(C(=O)Nc3cccnc3)o2)cc1 | -2 | -6 | -1 | .
37 | O=C(c1ccc2c(=O)n(C3CCCC3)c(=S)[nH]c2c1)N1CCCCCC1 | -26 | . | 42 | 31
38 | COc1ccc(/C=C/c2nc(S(=O)(=O)c3ccccc3)c(NCCCN(C)C)o2)cc1OC | 3 | -6 | -9 | 74*
39 | O=C(Nc1cccs1)Nc1ccccc1Cl | -9 | . | 18 | .
40 | CCOc1ccccc1NC(=O)COc1coc(CN2CCCc3ccccc32)cc1=O | -7 | -23 | -21 | .
41 | O=C(Nc1nc(-c2ccc(F)c(F)c2)cs1)c1cnccn1 | 6 | . | 0 | 12
42 | CCn1nc(C)cc1C(=O)N1CCCC(N2CCN(c3cccc(Cl)c3)CC2)C1 (stereo unspecified) | -16 | -1 | -2 | 2
43 | CN1CCN(C2=C(Cl)C(=O)N(Cc3ccccc3)C2=O)CC1 | 0 | -8 | -9 | -6
44 | COc1ccccc1OCCNC(=O)c1ccc(Br)cc1 | 0 | -12 | -7 | -24
45 | CC(=O)NC(=S)NNC(=O)COc1ccc(Br)cc1 | 0 | . | . | 4

nr | eIF4H inh | Rce1 inh | MT1-MMP act inh | PABP polyA inh
31 | 6 | i | 2 | 7
32 | 3 | i | -3 | 10
33 | -3 | i | -2 | -2
34 | 6 | i | 11 | 7
35 | -5 | i | 4 | 0
36 | 4 | i | 0 | 11
37 | -12 | i | -5 | 4
38 | -11 | i | 2 | -2
39 | 14 | i | 0 | 45
40 | . | i | -7 | .
41 | -1 | i | 6 | -5
42 | 4 | . | 0 | -5
43 | 89* | i | -2 | 90*
44 | 5 | i | 0 | -4
45 | -9 | . | -11 | 5

(listing goes on)
nr | compound | MT1-MMP act inh RFP | UUG fidelity | CSC inhib | Env fusion inh
46 | O=C(NCCN1CCOCC1)c1ccc(CS(=O)(=O)Cc2ccccc2F)o1 | -2 | -15 | 8 | .
47 | Cc1cccc(NC(=O)CNC(=O)[C@H]2O[C@@H](n3ccc(N)nc3=O)[C@H](O)[C@@H]2O)c1C | 2 | -11 | . | 14
48 | CN(C)c1nc(C(N)=O)nc(N2CCOCC2)n1 | 8 | -21 | -8 | -66
49 | CC1CCCCN1C(=O)Cn1c(=O)oc2cc(S(=O)(=O)N3CCCC3)ccc21 (stereo unspecified) | -1 | -16 | -10 | 3
50 | CN1CCN(c2ccccc2NC(=O)C(Cc2ccccc2)n2cccc2)CC1 (stereo unspecified) | 3 | 7 | 7 | 77*
51 | COc1ccc(N(CC(=O)Nc2ccc(S(=O)(=O)N3CCOCC3)cc2)S(=O)(=O)c2ccc(F)cc2)cc1 | -4 | -1 | -6 | -6
52 | CC(=O)C1=C(O)CC(c2ccccc2)CC1=NCCc1c(C)[nH]c2ccc(C)cc12 (stereo unspecified) | -4 | -1 | 13 | -63
53 | CCCN(CC(=O)Nc1cc(Cl)ccc1Cl)C(=O)/C=C/c1ccco1 | 0 | . | 29 | -19
54 | Cc1ccc(NC(C#N)c2ccccc2OCc2ccccc2)cc1 (stereo unspecified) | 6 | -10 | 31 | -436
55 | CN(CCO)c1ccc(-c2n[nH]c(=O)c3ccccc23)cc1[N+](=O)[O-] | -5 | . | 4 | 20
56 | CC(NC(=O)CSCc1ccccc1Br)c1ccccc1 (stereo unspecified) | 0 | . | -5 | 2
57 | O=C(OC1CCCCC1=O)c1cc(=O)c2ccccc2o1 (stereo unspecified) | 0 | -15 | -12 | -70
58 | COc1ccc(C=C(c2nc3ccccc3s2)c2nc3ccccc3s2)cc1O | -12 | 32 | 4 | -65
59 | C/C(=N/NC(=O)c1ccc(C)s1)c1ccncc1 | 0 | -17 | -3 | -28
60 | COc1ccccc1-c1noc2ncnc(Nc3ccc4c(c3)OCO4)c12 | 1 | -16 | 1 | 8

nr | eIF4H inh | Rce1 inh | MT1-MMP act inh | PABP polyA inh
46 | 6 | i | -4 | 9
47 | . | . | 4 | .
48 | -4 | i | 5 | 0
49 | 0 | i | -3 | -12
50 | 7 | i | 0 | -8
51 | -6 | i | -1 | -9
52 | 7 | i | 2 | -8
53 | -1 | i | 0 | 0
54 | -10 | i | 5 | -7
55 | -6 | i | 5 | 1
56 | 5 | i | 0 | -3
57 | -9 | i | 3 | -10
58 | ? | i | -24 | 19
59 | 0 | i | -4 | -1
60 | 0 | i | -2 | 6

Next part:
nr | compound | MT1-MMP act inh RFP | UUG fidelity | CSC inhib | Env fusion inh
61 | CC1(C)OCC(CNC(=O)c2[nH]c(C(F)(F)F)nc2-c2ccccc2)O1 (stereo unspecified) | 2 | -8 | . | -16
62 | COc1ccc(C(=O)Nc2ccc(NC(=O)C(C)C)nc2)cc1 | 1 | -4 | -30 | 4
63 | COCC1CCCN(Cc2cn[nH]c2-c2cc3ccccc3o2)C1 (stereo unspecified) | 0 | -17 | 11 | 6
64 | Nc1nc(-c2ccc(Oc3ccccc3)cc2)c(CC(=O)O)s1 | 4 | -24 | 5 | 15
65 | CCN(CC)S(=O)(=O)c1ccc(C(=O)NCC(=O)NC2CC2)cc1 | 1 | -3 | -8 | .
66 | CC1(c2ccccn2)Nc2ccccc2-c2nc3ccccc3n21 (stereo unspecified) | -2 | -11 | -15 | -98
67 | COC(=O)c1ccc(Cn2cc(C(F)(F)F)cc([N+](=O)[O-])c2=O)cc1 | 0 | . | 5 | 4

nr | eIF4H inh | Rce1 inh | MT1-MMP act inh | PABP polyA inh
61 | . | . | 2 | .
62 | 2 | i | 5 | 16
63 | 7 | i | -1 | -5
64 | -6 | i | -20 | 5
65 | . | i | 1 | .
66 | -3 | ? | 10 | 4
67 | 2 | i | -1 | -1
